MT1-MMP act inh – blocks activation of human MT1-MMP | P50281 | HT1080 RFP-PRO-GFP cells, GFP/RFP ratio fluorescence, overnight; percent of plate control window, DMSO zero | GFP/RFP ratio change, % at 20 µM | 360,000 tested, 0.061% active | AID 651647;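 active = GFP/RFP ratio change of at least 30% with cell ATP level not reduced by more than half and red fluorescence within 50% of control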; also: strong numbers were not always called active
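Test system: HT1080 RFP-PRO-GFP cells; Benchmarks: DMSO and RFP-L50D-GFP cell wells; Timing: cells overnight before dosing, compound overnight, 37 °C, 5% CO2; Compound: one 20 µM compound dose with 1% DMSO; Read-out: GFP/RFP fluorescence ratio.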
PABP polyA inh – blocks human PABP binding to poly(A) RNA. P11940. fluorescence polarization. inhibition, % at 35 µM. 290,000 tested, 1% active. AID 2014;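 active = 50% or more with normal probe brightness, or confirmed in later tests; inconclusive = above 50% with abnormal brightness, or retests that disagree; inactive = below 50% or failed in later tests; about a fifth of its hits are not listed in these tables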;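 also: calls also rest on retests at 20 µM and on dose response follow-up; controls were probe without protein and protein plus probe with vehicle; some compounds called inactive have numbers as strong as hits; many hits fall short of the cut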
Target sequence (P11940 whole entry, looked up): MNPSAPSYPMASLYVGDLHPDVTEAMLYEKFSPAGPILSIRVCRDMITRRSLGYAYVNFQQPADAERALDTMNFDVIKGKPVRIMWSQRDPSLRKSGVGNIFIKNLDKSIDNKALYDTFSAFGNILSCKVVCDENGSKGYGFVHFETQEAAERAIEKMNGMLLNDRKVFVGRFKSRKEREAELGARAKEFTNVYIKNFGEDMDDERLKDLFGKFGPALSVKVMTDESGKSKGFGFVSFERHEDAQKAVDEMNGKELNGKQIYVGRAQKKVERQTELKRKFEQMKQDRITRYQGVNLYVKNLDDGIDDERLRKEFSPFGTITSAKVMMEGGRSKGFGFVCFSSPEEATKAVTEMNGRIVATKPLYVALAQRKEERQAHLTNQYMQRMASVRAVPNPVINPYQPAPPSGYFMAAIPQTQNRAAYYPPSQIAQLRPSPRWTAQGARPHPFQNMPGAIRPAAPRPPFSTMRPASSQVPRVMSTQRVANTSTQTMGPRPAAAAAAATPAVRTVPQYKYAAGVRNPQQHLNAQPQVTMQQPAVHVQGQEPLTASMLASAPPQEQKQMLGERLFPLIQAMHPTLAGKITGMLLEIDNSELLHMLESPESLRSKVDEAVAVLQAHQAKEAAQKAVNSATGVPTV
UUG fidelity – yeast start codon fidelity modulation | S. cerevisiae UUG-firefly luciferase reporter, luminescence/redox ratio | activity score, % at 18.7 µM | 350,000 tested, 0.13% active | AID 602363;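 active = replicate mean at a twofold rise or more, about +100% in these data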;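 also: firefly luciferase made from a UUG start codon reports start codon fidelity; reporter light over untreated wells divided by growth signal over untreated wells; some hits fall short of that in this replicate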
HIV Env fusion – inhibitors of HIV Env-mediated cell fusion; AID 651610; HeLa-JRFL Env/CEM21 cell fusion, luciferase; 360,000 tested, 1.1% active; inhibition, % at 12.3 µM;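 active = mean replicate inhibition score of at least 50 and every replicate individually at or above 50; inconclusive = only one of the two criteria met; inactive = mean below 50 and not all replicates reaching 50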;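 also: 0% = plate neutral controls and 100% = maraviroc near 300 nM; one replicate is shown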
Rce1 inh – inhibitors of yeast Ras-converting enzyme; Q03530; yeast membranes, quenched prenylated peptide cleavage fluorescence; calls only; 290,000 tested, 0.27% active; AID 2563;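 active = fall in fluorescence gain of 50% or more versus controls, with final raw signal at or below 3038400; inconclusive = same 50% fall but final raw signal above 3038400; inactive = fall in fluorescence gain under 50%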;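 also: plate controls were neutral control wells for no effect and wells lacking membranes for full effect; tested at 10 µM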
Target sequence (Q03530 whole entry, looked up): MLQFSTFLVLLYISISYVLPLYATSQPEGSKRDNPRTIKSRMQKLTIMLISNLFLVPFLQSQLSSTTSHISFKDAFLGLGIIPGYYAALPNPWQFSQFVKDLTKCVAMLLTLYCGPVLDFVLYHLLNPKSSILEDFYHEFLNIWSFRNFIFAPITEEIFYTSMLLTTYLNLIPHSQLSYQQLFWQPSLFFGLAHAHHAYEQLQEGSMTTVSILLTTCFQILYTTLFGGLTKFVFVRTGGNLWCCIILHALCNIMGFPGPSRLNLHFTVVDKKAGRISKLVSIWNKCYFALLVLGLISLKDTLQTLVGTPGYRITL
eIF4H FP inh – inhibitors of RNA binding by human eIF4H; eIF4H fluorescence polarization binding assay; inhibition, % at 35 µM; 290,000 tested, 0.94% active; AID 2012;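 active = 50% or more with normal probe brightness, or confirmed in later tests; inconclusive = above 50% with abnormal brightness, or retests that disagree; inactive = below 50% or failed in later tests; about a fifth of its hits are not listed in these tables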;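 also: calls also rest on retests at 20 µM and on dose response follow-up; 0% = protein and probe with vehicle and 100% = probe without protein; strong numbers were not always called active; many hits fall short of the cut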
CSC inhib – cancer stem cell inhibition. cancer stem cell-like cells viability, luminescence. inhibition, % at 7.5 µM. 300,000 tested, 1.1% active. AID 2717;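 active = mean at 75% or more and at least half the replicates too; inconclusive = mean and replicates disagree; tested in HMLE shEcad cells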;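 also: 0% = median of negative and 100% = median of positive control wells; the first replicate is given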
eIF4H FP inh retest – further read-out of eIF4H FP inh, marked with its call; inhibition, %; compound at 20 µM; confirmation average;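 mean of two retest wells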
PABP polyA inh retest – also measured in PABP polyA inh; calls as there; inhibition, %; compound at 20 µM; confirmation repeats;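 mean of two retest wells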
MT1-MMP act inh RFP – recorded beside MT1-MMP act inh, whose call it bears; RFP signal change, %; measured here: RFP expression control read;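 0 = vehicle wells; hits needed this value within 50% of zero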
An asterisk follows results filed as active; i = inactive; ? = inconclusive; . = not tested or not shown; + = active, no number; & = joins results of further samples; [ ] = dose if it differs, or a comment. No enrichment for hits, and some 3% of all compounds hit somewhere here.

SMILES	MT1-MMP act inh	MT1-MMP act inh RFP	PABP polyA inh	UUG fidelity	HIV Env fusion	Rce1 inh	eIF4H FP inh	CSC inhib	others
CN(c1ccccc1)S(=O)(=O)c1cccc(C(=O)NCCc2ccc(O)c(O)c2)c1	-1.0	-15.1	-15.3	.	4.1	i	0.5	46.7
CCCCSCCCNC(=S)Nc1ccccc1C	4.0	-3.7	?	-35.3	7.2	i	-7.8	6.2
CCc1ccc(C2=NN(S(C)(=O)=O)C(c3cccs3)C2)cc1 (stereo unspecified)	-45.4	-0.9	-8.7	-23.2	-350.0	i	1.6	-3.8
CCOc1cccc(CNc2nnnn2C)c1	-0.1	4.6	-7.6	-6.6	-9.5	i	-0.1	-22.8
COc1ccc(O)c(/C=N/Nc2nc3ccccc3[nH]2)c1	1.1	7.2	3.2	.	-27.8	i	0.8	-4.4
CC(=O)c1ccc(OC2(C)CCN(Cc3ccc(C)cc3)C2)cc1 (stereo unspecified)	-1.3	5.4	.	-13.6	-15.7	.	.	.
NC(=O)C1CCN(CC(=O)Nc2ccccc2Sc2ccc(Cl)cc2)CC1	-0.2	-5.8	0.9	0.5	.	i	-0.4	-8.3
Cc1cc2nc3c(nc2cc1C)C1(C(=O)O)CCC3(C)C1(C)C (stereo unspecified)	12.9	0.4	-6.5	-16.9	.	i	4.1	1.5
Nc1nc(CN2CCOCC2)cs1	2.0	1.1	0.5	-24.5	-51.1	i	-9.1	-1.1
CCC(C)(C)n1nnnc1CN1CCc2ccccc21	-2.1	1.8	-5.1	-3.5	.	i	-6.1	-6.9
CCn1c(Oc2cccc(Br)c2)nc2c1c(=O)n(C)c(=O)n2C	-4.3	-5.8	11.3	3.2	28.7	i	4.9	14.8
CC(=O)c1cccc(NC(=O)c2cc(=O)[nH]c3ccc(S(=O)(=O)N4CCOCC4)cc23)c1	3.5	6.0	.	2.5	-27.2	.	.	-20.4
COc1ccc(S(=O)(=O)N(C)C[C@H]2Oc3ccc(NC(=O)Nc4ccccc4)cc3C(=O)N([C@H](C)CO)C[C@@H]2C)cc1	-6.7	-1.3	.	-5.5&-6.7	-3.0[16.7 µM]	.	.	-1.8
CN(C)S(=O)(=O)c1cccc(NC(=S)Nc2ccc(Cl)cc2Cl)c1	4.3	-0.8	1.9	-14.1	-221.4	i	-4.2	-5.8
CCc1ccccc1NC(=O)C1CC(c2ccc(F)cc2)=NO1 (stereo unspecified)	2.2	2.9	-10.7	0.0	-27.1	i	-7.9	-7.5
COc1ccc(CNC(=O)[C@@H](NC(=O)C2CCN(S(=O)(=O)c3ccc(C)cc3)CC2)C(C)C)cc1OC	-0.7	-1.6	8.2	-13.4	0.7	i	-11.8	1.3
COc1ccccc1/C=C/C(=O)NC(=S)Nc1ccc(S(=O)(=O)N(C)c2ccccc2)cc1	3.3	1.9	-11.2	1.0	.	i	-5.6	.
O=C(COC(=O)COc1ccc2c(c1)CCC2)Nc1ccccc1C(F)(F)F	-3.7	2.5	.	-8.5	.	.	.	-1.0
CCOC(=O)c1c(NC(=O)CSc2nc3c(c(=O)n(C)c(=O)n3C)n2CC)sc(C)c1C	5.7	5.2	1.6	-18.4	10.0	i	-4.1	3.9
CCN1CNC(=S)N(c2cc(C)ccc2C)C1	3.6	2.8	-12.1	2.1	-68.0	i	-6.9	-14.9
CCOC(=O)C(Cc1c[nH]c2ccc([N+](=O)[O-])cc12)(NC(C)=O)C(=O)OCC	-0.2	2.8	.	-16.4	10.1	.	.	.
CCCC(C)c1nnc(NC(=O)C2CC(=O)N(c3ccc(OCC)cc3)C2)s1 (stereo unspecified)	0.8	-0.6	-0.4	-11.1	-2.2	i	-4.8	-9.7
O=C(CCC1CCCCC1)NC1CCCCC1	2.3	-0.7	.	-6.8	-2.6	.	.	-9.3
Cc1cc(OCC(=O)N2CCN(c3ccccn3)CC2)cc(C)c1Br	-0.9	0.7	-0.6	-4.9	.	i	-5.7	-10.3
NC(=O)C1CCN(C(=O)N2c3ccccc3Sc3ccccc32)CC1	-0.1	-2.7	-0.8	-4.1	.	i	6.6	-0.1
Cc1ccc(C(=O)N/C(=C\c2ccc(C)o2)C(=O)O)cc1	-3.6	1.5	2.2	1.4	-6.0	i	5.8	-23.1
O=C(c1ccco1)N1CCN(C(=O)c2cccc3c2C(=O)N(C2CCCCC2)C3)CC1	3.2	8.2	-3.5	6.2	11.5	i	-7.4	-7.5
COc1cccc(C2CC(c3cccc(C)c3)n3ncnc3N2)c1 (stereo unspecified)	-1.8	3.0	-6.5	-16.8	-36.2	i	-1.8	1.3
O=C(Nc1ccccc1)OCCNC(=O)c1cccc(Cl)c1	2.6	-2.8	-4.8	-6.6	.	i	3.2	-1.4
CCOc1cc(/C=N/n2c(C)nnc2C)ccc1O	4.9	11.2	6.1	-13.1	-11.4	i	-13.9	-5.4

Among those listed so far, 2 have a thiophene ring, fused or not:
SMILES	MT1-MMP act inh	MT1-MMP act inh RFP	PABP polyA inh	UUG fidelity	HIV Env fusion	Rce1 inh	eIF4H FP inh	CSC inhib	others
CCc1ccc(C2=NN(S(C)(=O)=O)C(c3cccs3)C2)cc1 (stereo unspecified)	-45.4	-0.9	-8.7	-23.2	-350.0	i	1.6	-3.8
CCOC(=O)c1c(NC(=O)CSc2nc3c(c(=O)n(C)c(=O)n3C)n2CC)sc(C)c1C	5.7	5.2	1.6	-18.4	10.0	i	-4.1	3.9

(list continues)
SMILES	MT1-MMP act inh	MT1-MMP act inh RFP	PABP polyA inh	UUG fidelity	HIV Env fusion	Rce1 inh	eIF4H FP inh	CSC inhib	others
COc1ccc(/C=C2/SC(=O)N(CCC(=O)Nc3ccc(C)cc3)C2=O)cc1OC	.	.	-2.9	.	-17.1	i	-16.2	31.3
CCOc1cc(/C=N/NC(=O)CN2CCCCC2)ccc1OCc1cccc(Cl)c1	-0.3	0.4	-1.6	-6.7	21.1	i	-11.9	10.9
CC1CCCN(C(=O)COC(=O)c2cc(Br)ccc2O)C1 (stereo unspecified)	1.1	3.1	.	-18.9	.	.	.	-11.7
CCOC(=O)CCn1cnc2ccc([N+](=O)[O-])cc2c1=O	-1.6	-0.1	-3.3	-22.9	-1.7	i	8.1	5.3
COc1ccccc1OCCNC(=O)c1cc(C2CC2)nc2c1cnn2C(C)C	-2.1	-0.8	.	-12.9	9.3	.	.	6.5
CSc1nsc(SCC(=O)Nc2ccccc2C(=O)O)n1	-2.5	2.0	14.0	-8.2	-6.7	i	-5.0	.
CCC1(c2ccc(F)cc2)NC(=O)N(CC(=O)Nc2ccc(S(N)(=O)=O)cc2)C1=O (stereo unspecified)	0.3	-0.2	5.2	.	-9.9	i	4.3	-10.6
CCOC(=O)N1CC=C2C(C#N)=C(N)C(C#N)(C#N)[C@H](c3ccsc3)[C@H]2C1	-50.1	8.4	26.1	-9.5	-33.7	i	54.2	-5.0	eIF4H FP inh retest=34.4;PABP polyA inh retest=27.4
C[C@H](CO)N1C[C@H](C)[C@@H](CN(C)S(=O)(=O)c2ccccc2)Oc2c(NC(=O)Nc3ccc4c(c3)OCO4)cccc2C1=O	-1.6	-2.8	.	-1.7	-8.0	.	.	.
CCOc1ccc(-c2nnc(-c3cccs3)o2)cc1OCC	1.7	-4.7	5.9	-20.3	-59.5	i	-5.4	-16.5
O=C(COC(=O)/C=C/c1ccc([N+](=O)[O-])cc1)NCc1ccco1	0.8	2.0	4.3	-13.3	4.9	.	-6.4	-5.0
CC1=CC2=NC(=O)/C(=C\c3cccn3CCOc3ccccc3C)C(=N)N2O1	-3.1	-2.4	-1.1	-20.4	-19.9	i	-9.8	1.6
CSc1nc(-c2ccco2)nn1S(=O)(=O)c1ccc(C)cc1	0.1	5.6	6.6	-18.9	3.8	i	8.3	-26.3
CC(C)c1ccc(NC(=O)[C@H](NC(=O)[C@@H]2Cc3ccccc3CN2)c2ccccc2)cc1	0.3	-3.7	-0.2	.	-19.8	i	-6.8	-1.9
O=c1[nH]cnc2[nH]ncc12	2.5	6.4	2.0	-7.4	.	i	-13.3	-0.9
COc1ccc(C2CCCN2C(=S)Nc2ccc(C)cc2Cl)cc1OC (stereo unspecified)	-0.4	-11.6	-0.9	-22.4	16.9	i	-1.3	5.8
COc1ccc(OC)c(NC(=O)COC(=O)CCCN=C2NS(=O)(=O)c3ccccc32)c1	-1.0	0.6	.	-4.4	.	.	.	-8.5
Cc1cc(NC(=O)COC(=O)[C@@H](NS(=O)(=O)c2ccccc2)C(C)C)no1	3.1	8.5	-13.8	.	-8.0	i	-8.8	-0.9
COc1ccc(C(=O)Nc2ccc(Nc3ccccc3)cc2)cc1OC	-0.3	0.2	0.7	-19.0	-8.1	i	-0.9	-3.3
Cn1c(=O)c2c(nc(N3CCCCC3)n2CCSc2nc3ccccc3s2)n(C)c1=O	-5.5	-1.8	-14.1	9.0	-38.9	i	-4.2	-6.1
C=CCNC(=O)c1cc(-c2ccncc2)nc2c(C)cc(C)cc12	-7.0	-0.6	-1.7	-6.0	.	i	-10.1	-4.5
COc1ccccc1CNC(=O)C(CCSC)NC(=O)c1cccc(S(=O)(=O)N2CCOCC2)c1 (stereo unspecified)	0.4	-1.0	.	-23.6	-4.6	.	.	-10.7
Cc1c(C(=O)NCc2ccc(F)cc2)sc(=O)n1Cc1ccccc1	7.4	0.4	.	-11.4	8.1	.	.	.
COc1ccc(-c2csc(C(C)(O)c3ccc(F)c(F)c3)n2)cc1OC (stereo unspecified)	-3.5	-9.6	.	-5.8	-7.1	.	.	.
COC(=O)CSc1nc2ccccn2c(=O)c1C=O	-7.5	3.9	-9.8	.	-16.0	i	10.4	-12.2
CCNC(=O)CSc1nnc(-c2ccccc2)n1-c1ccc(OCC)cc1	-1.1	-1.2	-6.4	-3.8	-21.4	i	-6.8	-4.2
Cc1nn(CCCC(=O)Nc2cc(Oc3ccc(F)cc3)cc([N+](=O)[O-])c2)c(C)c1[N+](=O)[O-]	-6.3	-10.5	-3.4	-16.3	32.2	i	-2.1	47.3
Cc1ccc(OCC(=O)Nc2nnn(C)n2)c(C)c1	4.6	0.4	10.0	-3.1	-13.7	i	1.4	-11.7
CC1CCN(C(=O)c2cc3nc(-c4ccccc4)cc(-c4ccccc4)n3n2)CC1	-11.8	-5.1	8.6	-14.7	76.8*	+	-2.7	35.0
O=C(/C=C/c1ccc(Br)o1)Nc1nnc(C2CC2)s1	.	.	37.4	.	.	i	49.5	-14.6
CCOC(=O)c1ccc(NC(=O)c2cc(S(=O)(=O)N3CCOCC3)cn2C)cc1	4.3	3.8	2.0	-13.5	-21.0	i	2.5	3.6
COC(=O)C1=C(N)Oc2cc(N(C)C)ccc2C1c1ccccc1OC (stereo unspecified)	-23.8	2.7	23.4	4.0	61.0*	i	18.2	41.4
CC(C)(C)c1ccc(NC(=O)CSc2n[nH]c(=O)n2-c2cccnc2)cc1	2.3	0.2	10.0	9.0	-1.7	i	-0.7	37.5
CCN(CC)S(=O)(=O)c1ccc2c(c1)nc(CCC(=O)Nc1ccccc1Cc1ccccc1)n2CC	-4.5	-6.6	-4.7	0.6	1.8	i	-5.2	-4.9

Compound activity as filed in PubChem BioAssay.
